PK Bst = Pyruvate Kinase; AID 361, 2006; 51,000 tested, 1.2% active; partly purified Bacillus stearothermophilus pyruvate kinase, luminescence ATP production; ribose 5-phosphate activator present at AC10; Potency, µM; in the data active means potency below about 11 µM; inconclusive means mostly about 12 µM to 25 µM; inactive means weaker than that;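 the screen sought inhibitors and activators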;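 also: potency is read from the fitted curve at half-maximal effect; scaled between full activation by ribose 5 phosphate and full inhibition by luteolin; about four in five hits inhibit and the cells do not say which; series up to 57 µM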
TsaE inh = qHTS Assay for Inhibitors of YjeE | tRNA threonylcarbamoyladenosine biosynthesis protein TsaE (Escherichia coli (strain … | purified YjeE, fluorescence polarisation of a bound ADP probe | Potency, µM | 71,000 tested, 0.05% active; active = well fitted falling curve; inconclusive = weaker or top-dose-only fall, or a rising curve; inactive = flat or poorly fitted curve;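 also: top concentration of the series not given in the record; excess ADP was the control for the full effect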
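Fluorescence polarization of a BODIPY Texas Red–ADP probe (2 uM) bound to purified YjeE (10 uM) was read after 15 min room-temperature incubation with compounds. Loss of polarization marks inhibitors; ADP serves as titrated control.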
* hit, by the source's call. This is a subset (hit frequency here may not be typical).

Cc1csc2ncc(C(=O)Nc3cccc(C(F)(F)F)c3)c(=O)n12 was read as TsaE inh inactive.
For Cc1ccc(S(=O)(=O)N(C)CC(=O)N2CCCc3ccccc32)cc1 the results were PK Bst >57 and TsaE inh inactive.
N#Cc1cccc(NC(=O)N2CC3(CCN(C(=O)c4cccc(F)c4)CC3)C2)c1 was read as TsaE inh inactive.
COC(=O)C1=C(C)NC(=O)C1(Nc1ccc(Cl)cn1)C(F)(F)F (stereo not given) was read as PK Bst >57 and TsaE inh inactive.
`CSc1ccccc1NC(=O)c1c(C)noc1C` gave TsaE inh inactive.
For O=C(c1cnn2c(C(F)F)cc(C3CC3)nc12)N1CCOCC1 the results were PK Bst >57 and TsaE inh inactive.
COc1nc(Nc2nc3ccccc3c(=O)[nH]2)nc2ccc(C)cc12 was read as TsaE inh inactive.
Screening COc1cc(C(C)=O)ccc1OC(=O)C(C)N1C(=O)c2ccccc2C1=O (stereo not given) returned TsaE inh inactive.
For CN1CCN(c2ncc3nc(-c4cc(F)cc(F)c4)c(=O)n(C)c3n2)CC1 the results were TsaE inh inactive.
Screening COc1cc(C2C(C#N)=C(N)OC3=C2C(=O)CC(C)(C)C3)ccc1OC(=O)N1CCOCC1 (stereo not given) returned PK Bst >57 and TsaE inh inactive.
`CN1CCN(c2ncc3ncc(=O)n(C4CC4)c3n2)CC1` gave TsaE inh inactive.
COCCNC(=O)CSc1nc2ccccc2c2nc(C)nn12 was read as PK Bst >57 and TsaE inh inactive.
Cc1c(C(=O)NCc2cccnc2)sc2nc(-c3ccc(F)cc3)cn12 was read as TsaE inh inactive.
Screening CCOc1ccc(N2C(=O)CC(NCc3ccc(F)cc3)C2=O)cc1 (stereo not given) returned PK Bst >57 and TsaE inh inactive.
O=C(Nc1ccccc1Cl)N1CCN(c2ccccn2)CC1 was read as TsaE inh inactive.
For NS(=O)(=O)c1ccc(-c2ccc(C=NC3CCS(=O)(=O)C3)o2)cc1 (stereo not given) the results were PK Bst >26.
c1ccc(-c2csc(Nc3cccnc3)n2)nc1 was read as PK Bst >57 and TsaE inh inactive.
Screening COC(=O)N1CCN(S(=O)(=O)c2ccc(F)cc2)CC1 returned PK Bst >57 and TsaE inh inactive.
Cc1cc(N2CCOCC2)nc2ccc(Cc3ccc4nc(N5CCOCC5)cc(C)c4c3)cc12 was read as TsaE inh inactive.
Screening O=C(Cn1c(=O)n(-c2ccccc2)c(=O)c2sccc21)N1CCCC1 returned PK Bst >57 and TsaE inh inactive.
Cn1c(=O)c2cc(S(=O)(=O)NCCC(=O)NC3CCCCCCC3)ccc2n(C)c1=O was read as PK Bst >57 and TsaE inh inactive.
For Cn1c(=O)c(-c2cccc(Cl)c2)nc2cncnc21 the results were TsaE inh inactive.
Screening CN1C(=O)c2ccc(N3CCCC3)cc2C1=O returned PK Bst inactive and TsaE inh inactive.
For CN(C)Cc1ccccc1-c1ccc2ncnc(NC3CCNCC3)c2c1 the results were TsaE inh inactive.
`CC[C@@H](C)[C@H](NC(=O)C1CCN(C(=O)[C@@H](NS(=O)(=O)c2ccc(C)cc2)C(C)C)CC1)C(=O)O` gave PK Bst >57 and TsaE inh inactive.
Screening Cc1ccccc1-n1nc(C)c2cc(C(=O)NCc3cccnc3)sc21 returned PK Bst >57 and TsaE inh inactive.
Screening O=c1[nH]c(CSc2nc3ccccc3o2)nc2c1cnn2-c1ccccc1 returned PK Bst >57 and TsaE inh inactive.
`CC(C)Oc1nc(-c2ccccc2O)nc2ccccc12` gave PK Bst >57 and TsaE inh inactive.
Screening O=S(=O)(c1ccccc1)c1nc(-c2cccs2)oc1NCCCn1ccnc1 returned PK Bst >57 and TsaE inh inactive.
Screening CC(=O)c1c(C)nn(C(=O)N2CCOCC2)c1C returned TsaE inh inactive.
O=c1/c(=C/c2ccccn2)sc2n1CN(c1ccccc1)CN=2 was read as PK Bst >26.
Screening Cc1ccccc1-n1c(=O)cc(NCc2ccc3c(c2)OCO3)[nH]c1=O returned PK Bst >57 and TsaE inh inactive.
For Cn1cccc1C(=O)N1CCC2(CC1)CCN(c1ccncc1)CC2 the results were TsaE inh inactive.
Screening COc1ccc(NC(=O)CN2CCC3(O)CCCCC3C2c2cc(OC)ccc2OC)cc1 (stereo not given) returned PK Bst >57 and TsaE inh inactive.
For CC1=C2[C@@H]([C@H](C)CC[C@H]2/C=C(\C)C(=O)O)[C@H](O)C1 the results were TsaE inh inactive.
Screening Cc1nn(-c2ccc3nnc(Br)n3n2)c(C)c1Br returned PK Bst >57 and TsaE inh inactive.
CS(=O)(=O)N1CCC2(CCCN(Cc3ccccc3)C2)CC1 was read as TsaE inh inactive.
Screening Clc1ccc(C2CC(c3cccs3)n3ncnc3N2)cc1Cl (stereo not given) returned TsaE inh inactive.
Screening CSc1cccc(NC(=O)C2CCCN(S(=O)(=O)c3cnc[nH]3)C2)c1 (stereo not given) returned TsaE inh inactive.
For N#Cc1cccc(-c2nc3cnc(N4CCOCC4)nc3n(C[C@H]3CCCO3)c2=O)c1 the results were TsaE inh inactive.
COc1cc2[nH]c(=S)n(C3CCCC3)c(=O)c2cc1OC was read as PK Bst >57 and TsaE inh inactive.
For NC(N)=N[C@H](CC(=O)O)c1ccccc1 the results were TsaE inh inactive.
For Cc1ccc(C)c(N2CCN(S(=O)(=O)c3c(C)noc3/C=C/N(C)C)CC2)c1 the results were PK Bst >57 and TsaE inh inactive.
`O=C1O[C@H](CN2CCOCC2)CN1/N=C\c1ccc([N+](=O)[O-])o1` gave TsaE inh inactive.
`CCCCNC(=O)C(c1ccc(OCC(=O)OC)c(C(=O)OC)c1)N(CCOC)C(=O)CCCCCN1C(=O)NC(c2ccc(-c3ccccc3)cc2)C(C(=O)OCc2ccccc2)=C1C` (stereo not given) gave TsaE inh inactive.
COC(=O)/C=c1/sc2n(c1=O)CCN=2 was read as PK Bst >57 and TsaE inh inactive.
Screening NC(=O)C[C@H](NC(=O)Cc1ccc(O)cc1O)C(=O)O returned TsaE inh inactive.
Cc1cc(C(=O)CSc2n[nH]c(N)n2)c(C)n1-c1cccc(F)c1 was read as PK Bst >57 and TsaE inh inactive.
Cc1cc(C)nc(/N=C2\NC(=O)CC(C(=O)O)N2c2ccc(Cl)cc2)n1 (stereo not given) was read as TsaE inh inactive.
For Fc1ccc(-c2cnc[nH]2)cc1 the results were PK Bst >26.

3 compounds from above, ordered by length of the SMILES, highest first:
`CCCCNC(=O)C(c1ccc(OCC(=O)OC)c(C(=O)OC)c1)N(CCOC)C(=O)CCCCCN1C(=O)NC(c2ccc(-c3ccccc3)cc2)C(C(=O)OCc2ccccc2)=C1C` (stereo not given) gave TsaE inh inactive.
Cc1cc(C(=O)CSc2n[nH]c(N)n2)c(C)n1-c1cccc(F)c1 was read as PK Bst >57 and TsaE inh inactive.
Screening NC(=O)C[C@H](NC(=O)Cc1ccc(O)cc1O)C(=O)O returned TsaE inh inactive.

(continued)
`CC(=O)c1c(C)[nH]c(C(=O)N2CCc3ccccc32)c1C` gave PK Bst >57 and TsaE inh inactive.
For CCOC(=O)Cn1c(=O)oc2cc(S(=O)(=O)N3CCCc4ccccc43)ccc21 the results were TsaE inh inactive.
For CCCn1c(SCC(=O)Nc2c(C)cccc2C)nnc1C(C)C the results were PK Bst >57 and TsaE inh inactive.
For Cc1cccc(CNc2ncncc2-c2ccccc2C(F)(F)F)c1 the results were TsaE inh inactive.
`CC(C)C[C@H](NC(=O)OC(C)(C)C)c1nnc(SCc2cccc(F)c2)o1` gave PK Bst >57 and TsaE inh inactive.
Screening COc1ccc(C2/C(=C(\O)c3ccc(OC)c(Cl)c3)C(=O)C(=O)N2CCN(C)C)cc1 (stereo not given) returned PK Bst >57 and TsaE inh inactive.
Screening OC(c1ccccn1)c1c[nH]c2ccccc12 (stereo not given) returned PK Bst >57 and TsaE inh inactive.
Screening COCCN1C(=O)c2ccc(C(=O)Nc3nccs3)cc2C1=O returned TsaE inh inactive.
O=S(=O)(NCCOC12CC3CC(CC(C3)C1)C2)c1cccc2nsnc12 was read as PK Bst >57 and TsaE inh inactive.
`CN1CCN(c2ccc(C(=O)c3ccc(F)cc3)cc2)CC1` gave TsaE inh inactive.
CCOC(=O)N1CCN(C(=O)Cc2ccc(C)cc2)CC1 was read as PK Bst >57 and TsaE inh inactive.
For CC1(C)C(=O)NCCN1C(=O)CSc1nccc(-c2ccc(Br)cc2)n1 the results were PK Bst inactive and TsaE inh inactive.
For O=S(=O)(Nc1ccc(N2CCCCC2)cc1)c1cccs1 the results were PK Bst >57 and TsaE inh inactive.
For COc1ccc(C(C)(C)C)cc1NC(=O)C1CC=CCC1C(=O)O (stereo not given) the results were TsaE inh inactive.
`O=C(NCCSCc1ccccc1)c1cc(S(=O)(=O)N2CCOCC2)ccc1F` gave PK Bst >57 and TsaE inh inactive.
Cc1ccc(C2/C(=C(\O)c3c(C)nc4ccccn34)C(=O)C(=O)N2CCCN2CCOCC2)o1 (stereo not given) was read as PK Bst >57 and TsaE inh inactive.
`N#CCc1nc(CSc2nc3ccccc3s2)cs1` gave PK Bst >57 and TsaE inh inactive.
For CCOC(=O)CSc1nnc(NC(=O)c2cccc(S(=O)(=O)N3CCCCC3)c2)s1 the results were PK Bst >57 and TsaE inh inactive.
For CCOc1ccc(C(c2nnnn2Cc2ccccc2)N2CCN(C(=O)c3ccco3)CC2)cc1 (stereo not given) the results were PK Bst >57 and TsaE inh inactive.
For Cc1ccccc1CS(=O)(=O)CCC(=O)NCCN1CCN(c2cccc(Cl)c2)CC1 the results were PK Bst >57 and TsaE inh inactive.
`c1ccc(OCCOc2ncnc3ccccc23)cc1` gave PK Bst >57 and TsaE inh inactive.
C/C(N)=C(/C#N)C(=O)CSc1nnc(Nc2cccc(C)c2C)s1 was read as PK Bst inactive and TsaE inh inactive.
Screening CCS(=O)(=O)/N=C(\N)c1ccccc1 returned PK Bst >57 and TsaE inh inactive.
C=CCn1c(SCC(=O)Nc2ccc(C(=O)OCC)cc2)nnc1-c1cccs1 was read as PK Bst >57 and TsaE inh inactive.
COC(=O)c1ccc(Cn2cnc3c(cnn3-c3ccc(Cl)cc3)c2=O)o1 was read as TsaE inh inactive.
`Cc1nn(-c2cc(N3CCOCC3)ccc2N)c(=O)c2ccccc12` gave PK Bst >57 and TsaE inh inactive.
Screening O=C(Nc1ccc(S(=O)(=O)NC2CCCCC2)cc1)c1ccc(Br)o1 returned PK Bst >57 and TsaE inh inactive.
`CN(C)C(=O)CSc1nnc2sc3ccccc3n12` gave PK Bst >57 and TsaE inh inactive.
`CC1COC2C(O1)N(S(C)(=O)=O)CCN2S(C)(=O)=O` (stereo not given) gave TsaE inh inactive.
Screening Cn1c2ccccc2c2ncn(Cc3ccco3)c(=O)c21 returned PK Bst >57 and TsaE inh inactive.
Screening Cc1cc(=O)oc2c(CN3CCN(C)CC3)c(O)c(Cl)cc12 returned PK Bst >26.
For CCN(CCCNC(=O)CCNC(=O)Cn1cnc2ccccc2c1=O)c1ccccc1 the results were PK Bst >57 and TsaE inh inactive.
COCCOC(=O)c1c(C)oc2ccc(NS(=O)(=O)c3ccc(F)cc3)cc12 was read as TsaE inh inactive.
CCCC(CCC)n1[nH]c(=O)c2c(C)cc(C)nc21 was read as PK Bst >57 and TsaE inh inactive.
CCOC(=O)Nc1ccc2c(c1)N(C(=O)OC)c1ccccc1CC2 was read as PK Bst >57 and TsaE inh inactive.
For CCOC(=O)c1c(NC(=O)CCN2CCOCC2)sc2c1CC(C)(C)OC2 the results were PK Bst >26.
Screening Cc1ccc(-n2c(Cc3cccn3C)nnc2SCC(=O)Nc2nnc(C)s2)cc1 returned PK Bst >57 and TsaE inh inactive.
`Cc1ccc2nc(-c3ccccc3)cc(C(=O)O)c2c1` gave TsaE inh inactive.
For CCS(=O)(=O)N1CCC(C(=O)NCCCN2CCN(c3ccccc3F)CC2)CC1 the results were PK Bst >57 and TsaE inh inactive.
CC1(C)CC(=O)C2=C(C1)Oc1ncn(CCCO)c(=N)c1C2c1ccccc1 (stereo not given) was read as PK Bst >57 and TsaE inh inactive.
CCOC(=O)C1=C(C)N=C2SCCC(=O)N2C1c1ccc(C(=O)OC)cc1 (stereo not given) was read as PK Bst >57 and TsaE inh inactive.

Gathered by group, the compounds so far containing two or more sulfur atoms
For NS(=O)(=O)c1ccc(-c2ccc(C=NC3CCS(=O)(=O)C3)o2)cc1 (stereo not given) the results were PK Bst >26.
Screening O=S(=O)(c1ccccc1)c1nc(-c2cccs2)oc1NCCCn1ccnc1 returned PK Bst >57 and TsaE inh inactive.
Screening CSc1cccc(NC(=O)C2CCCN(S(=O)(=O)c3cnc[nH]3)C2)c1 (stereo not given) returned TsaE inh inactive.
O=S(=O)(NCCOC12CC3CC(CC(C3)C1)C2)c1cccc2nsnc12 was read as PK Bst >57 and TsaE inh inactive.
For O=S(=O)(Nc1ccc(N2CCCCC2)cc1)c1cccs1 the results were PK Bst >57 and TsaE inh inactive.
`O=C(NCCSCc1ccccc1)c1cc(S(=O)(=O)N2CCOCC2)ccc1F` gave PK Bst >57 and TsaE inh inactive.
`N#CCc1nc(CSc2nc3ccccc3s2)cs1` gave PK Bst >57 and TsaE inh inactive.
For CCOC(=O)CSc1nnc(NC(=O)c2cccc(S(=O)(=O)N3CCCCC3)c2)s1 the results were PK Bst >57 and TsaE inh inactive.
C/C(N)=C(/C#N)C(=O)CSc1nnc(Nc2cccc(C)c2C)s1 was read as PK Bst inactive and TsaE inh inactive.
C=CCn1c(SCC(=O)Nc2ccc(C(=O)OCC)cc2)nnc1-c1cccs1 was read as PK Bst >57 and TsaE inh inactive.
`CN(C)C(=O)CSc1nnc2sc3ccccc3n12` gave PK Bst >57 and TsaE inh inactive.
`CC1COC2C(O1)N(S(C)(=O)=O)CCN2S(C)(=O)=O` (stereo not given) gave TsaE inh inactive.
Screening Cc1ccc(-n2c(Cc3cccn3C)nnc2SCC(=O)Nc2nnc(C)s2)cc1 returned PK Bst >57 and TsaE inh inactive.

High-throughput results (PubChem BioAssay)
